Calb biofilm kill = clotrimazole potentiators killing C. albicans biofilm, primary screen, 4-compound mixtures; AID 1242, 2008; 0.02% of 120,000 active; C. albicans biofilm persisters + clotrimazole, fluorescence viability; primary screen in compound mixtures of four per well; inhibition, % at 7.6 µM;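 active means inhibition above 30.3% in the primary screen of four-compound pools, then above 30% when the compound was retested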;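 further: compounds exposed to preformed 24 h biofilms for 48 h; the number belongs to the whole pool; some results filed as inactive read as strong as hits; inactives centre near 12; 0% = biofilm with clotrimazole alone and 100% = kill control; retested singly at about 60 µM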
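Test system: C. albicans biofilms. Buffer or medium: RPMI/MOPS medium, pH 7.0. Timing: 48 h compound exposure at 37 °C. Technique: Alamar Blue fluorescence. Evaluation: percent inhibition of biofilm viability.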
Active calls of the source: *.

SMILES | Calb biofilm kill
Cc1cc(C)n2nc(C(=O)N3CCN(c4ccc([N+](=O)[O-])cc4)CC3)nc2n1 | -11.0
CCOC(=O)c1c(NC(=O)C2COc3ccccc3O2)sc2c1CCN(Cc1ccccc1)C2 (configuration not stated) | 10.3
CC(C)=CCN1CCN(CCCn2cccn2)CC1CCO (configuration not stated) | -5.2
O=C(CCN1CCCCC1)NNC(=O)C12CC3CC(CC(C3)C1)C2 | 13.4
CCC(C)NCCOCCOc1ccc(Cl)c(C)c1C (configuration not stated) | 7.2
COc1ccc(CCC(=O)N/N=C\c2cccs2)cc1 | 13.6
COc1ccc(S(=O)(=O)NC(C)C)cc1-n1cnnn1 | 6.3
O=C(NCc1ccc(N2CCCC2=O)cc1)c1cccc(Cl)c1 | -14.2
COc1ccc(N2C(=O)CSC2c2cccs2)cc1 (configuration not stated) | 12.2
COCC(C)n1c(C)cc(C(=O)COC(=O)c2ccc3c(c2)NC(=O)CS3)c1C (configuration not stated) | 10.9
Cc1ccc(NC(=O)c2cc(=O)c3ccccc3o2)cc1S(=O)(=O)N1CCOCC1 | 8.2
COc1ccc2[nH]c(=O)cc(C(=O)O)c2c1 | 13.1
CC(C)(C)c1ccc(C(=O)c2c[nH]c(C(=O)O)c2)cc1 | 6.3
CC(C)[C@H](NC(=O)c1ccccc1)C(=O)OCC(=O)N1CC2(C)CC1CC(C)(C)C2 (some centres not stated) | 9.0
CCNC(=O)c1ccccc1CCc1ccccc1 | 15.3
CN(CC(O)COCc1ccccc1F)C1CCCCC1 (configuration not stated) | 14.0
C=CCNc1nc(N2CCOCC2)nc(N2CCOCC2)n1 | 15.6
COc1cccc(C(=O)Nc2cc(-c3cn4cccnc4n3)ccc2C)c1 | 5.0
Cc1cc(N2CCN(C)CC2)nc2ccc(NC(=S)NCCCN3CCc4ccccc4C3)cc12 | 14.3
CC(CCc1ccccc1)NC(=O)C(=O)N1CCOCC1 (configuration not stated) | 20.1
Cn1nc(C(=O)N2CCc3ccccc32)c2ccccc2c1=O | 20.1
CN(CC(O)COc1ccc(S(=O)(=O)N2CCOCC2)cc1Cl)C1CCCCC1 (configuration not stated) | 28.8
O=C(NCCN1CCOCC1)c1ccc2c(c1)N(Cc1ccccc1F)C(=O)c1ccccc1S2 | 14.7
CCC1=NN2C(=N)/C(=C\c3cccn3-c3c(C)cccc3C)C(=O)N=C2S1 | 0.4
COc1cc(CCC(=O)O)on1 | 7.3
New compounds follow
SMILES | Calb biofilm kill
O=C(Nc1nc2c(cc3c4c(cccc42)CC3)s1)c1ccccc1Cl | 6.6
Cc1cccc(N=C2CSC(=O)N2)c1 | 11.2
O=C(Cc1ccc(Br)cc1)Nc1ccccc1Cl | 19.1
O=C1C(=O)N(CC(=O)N2CCCC2)c2ccccc21 | 2.1
Cc1ccc(/C=C2\C(=O)ON=C2c2ccccc2)o1 | 10.0
COc1ccc(-c2nc(CN(CC3CCC(=O)N3)C(C)C)c(C)o2)c(C)c1C (configuration not stated) | 6.1
CCc1cc2ccc(C)cc2nc1SCC(=O)NNC(=O)c1ccco1 | 16.1
CC(C)Sc1nc2c([nH]1)c(=N)ncn2Cc1ccccc1 | 2.9
Cc1onc(C(=O)NN)c1-c1csc(COc2ccc(Cl)cc2)n1 | 22.8
Cc1ccccc1NNC(=O)C(=O)NNc1ccccc1C | 7.0
c1ccc2sc(NN=C3CCCCCC3)nc2c1 | -4.7
Cc1nc(SCCOc2ccccc2F)[nH]c(=O)c1Cc1ccccc1 | 14.3
Cc1cccc(OCC(=O)Nc2ccccc2-c2ccccc2)c1 | 14.9
O=C(COC(=O)CCCSc1nc2ccccc2[nH]1)Nc1cccc(F)c1 | 14.9
O=C1NN=C(c2ccccc2)CC1c1c[nH]c2ccccc12 (configuration not stated) | 10.6
N#C/C(=C\c1ccc(Sc2ccccc2)o1)c1nc2ccccc2[nH]1 | 15.6
Cc1ccc(N2C(=O)c3cccc4cccc(c34)C2=O)cc1 | 14.9
O=C(CN1CCN(S(=O)(=O)c2ccccc2)CC1)Nc1ccccc1C(=O)c1ccccc1 | 6.4
COc1ccc(Cn2c(SCC#N)nc3ccc(N4CCOCC4)cc3c2=O)cc1 | 7.1
Cc1nonc1C(=O)N/N=C/c1ccc(O)cc1 | 11.9
Cc1ccc(C(=O)O)cc1NC(=S)NC(=O)c1ccc([N+](=O)[O-])c(C)c1 | 9.4
COC(=O)C(C(=O)OC)C(C[N+](=O)[O-])c1ccc(O)c(OC)c1 (configuration not stated) | 20.3
O=C(COC(=O)c1c[nH]c(=O)[nH]c1=O)Nc1ccccc1F | 13.7
Cn1nnnc1Sc1c(Cl)cccc1[N+](=O)[O-] | 13.2
O=C(NCCN1CCOCC1)c1cnn2c1NC(c1cccs1)CC2C(F)(F)F (configuration not stated) | 20.0

The last 4 entries of the part above lead into the next.
SMILES | Calb biofilm kill
COC(=O)C(C(=O)OC)C(C[N+](=O)[O-])c1ccc(O)c(OC)c1 (configuration not stated) | 20.3
O=C(COC(=O)c1c[nH]c(=O)[nH]c1=O)Nc1ccccc1F | 13.7
Cn1nnnc1Sc1c(Cl)cccc1[N+](=O)[O-] | 13.2
O=C(NCCN1CCOCC1)c1cnn2c1NC(c1cccs1)CC2C(F)(F)F (configuration not stated) | 20.0
COc1ccc(OC)c(-n2c(=S)[nH]c3cc(C(=O)N(C)Cc4ccccc4)ccc3c2=O)c1 | 9.2
Cc1cc(NC(=O)CCSc2ccccc2)ccc1Br | 8.8
COc1ccc(C(=O)NCCNc2ccccc2[N+](=O)[O-])cc1 | 12.7
Cc1ccc(/C=N/N(Cc2ccccc2)c2ccccc2)o1 | 16.4
O=C(COc1ccc(Cl)cc1Cl)NN1C(=O)C2C3C=CC([C@@H]2C1=O)C31CC1 (some centres not stated) | 11.6
CCOC(=O)C1=C(C)NC(C)=C(C(=O)OCC)C1c1cccc(C)n1 | 22.7
c1ccc2oc(-c3csc(N4CCOCC4)n3)cc2c1 | -7.5
CC(=O)NC1C(=O)N=C(SC(C)C(=O)Nc2cccc(Cl)c2)NC1=O (configuration not stated) | -11.6
CCOC(=O)c1ccc(NC(=O)[C@@H](NC(N)=O)C(C)C)cc1 | 16.8
Cc1cccc(C(=O)NCc2nnc3c4ccccc4c(-c4ccccc4)nn23)c1 | 8.1
Cc1scc(C(=O)NNC(=S)NCC(C)C)c1C | 4.8
CCN(CC)C(=O)CSc1nnc2cc(C)c3ccccc3n12 | 18.3
CCOC(=O)Cc1c[nH]c(=S)[nH]c1=O | 12.2
Cc1ccc(S(=O)(=O)c2cnc(-c3ccccc3)nc2N2CCCCC2)cc1 | 15.4
CCCOc1cccc(C(=O)Nc2ccc(Br)cc2F)c1 | -1.9
CCOC(=O)N1CCN(C(=O)c2cccc(F)c2)CC1 | 7.5
CCOc1cc(/C=C/C(=O)O)ccc1OCc1ccccc1 | -6.5
CCC(C)N=Cc1c(Nc2ccccc2)nc2c(C)cccn2c1=O (configuration not stated) | 10.5
Cc1cc(OCC(=O)O/N=C(\N)c2ccccc2)ccc1Cl | 5.5
CC1(C)Cc2cccc(C(=O)Nc3ccc(F)cc3F)c2O1 | 22.0
Cc1cc(C)cc(NC(=O)N2CCCN(Cc3c(F)cccc3Cl)CC2)c1 | 13.2
CCC(C)NC(=S)N1CCN(Cc2ccccc2)CC1 (configuration not stated) | 26.3
O=C(C1=C[C@H](c2coc3ccccc3c2=O)C[C@H](OCc2ccc(CO)cc2)O1)N1CCOCC1 | 23.7
CC(C)CC(NC(N)=O)C(=O)NCc1ccccc1Cl (configuration not stated) | 9.1
CN1C(=O)COc2ccc(C(=O)c3ccccc3C(=O)O)cc21 | 4.1
Next part
SMILES | Calb biofilm kill
COc1ccc(N2CCN(c3cc(C)c4ccccc4n3)CC2)cc1 | 11.7
CC1=NN(C(C#N)c2ccccc2O)C(C)(C)C1 (configuration not stated) | 0.1
O=C(Nc1ccc(CN2CCCCC2)cc1)c1cc(Br)ccc1Cl | 18.4
COc1ccccc1-n1c(C)nc2cc(C(=O)NCc3ccc4c(c3)OCO4)ccc21 | 10.6
CC(O)CNCCNCc1cccs1 (configuration not stated) | 9.8
CC(C)c1ccc(NC(=O)COC(=O)CCC(=O)c2cccs2)cc1 | 9.9
CCN(C(=O)CSc1nc2ccccc2c(=O)n1-c1ccc(C)cc1)C1CCS(=O)(=O)C1 (configuration not stated) | 10.1
C/C(N)=C(/C#N)C(=O)COC(=O)c1ccccc1O | 7.9
CCCCN(C)CCNC(=O)c1ccc(Cn2c(=S)[nH]c3ccc(Br)cc3c2=O)cc1 | 19.2
COc1ccc(NC(=O)CC(NCc2ccccn2)C(=O)O)cc1 (configuration not stated) | 8.8
Cc1ccccc1C(=O)Nc1nnc(SC(C)C)s1 | 10.3
C#CCOCCOCCOCCNc1nc(N2CCN(C(=O)[C@H](C(C)C)n3cc(CCO)nn3)CC2)nc(N2CCN(C(=O)[C@H]([C@@H](C)CC)n3cc(CCCCN)nn3)CC2)n1 | 12.4
CCC(C(=O)NC1CCCCC1)N(Cc1cccs1)C(=O)c1snc(C(N)=O)c1N (configuration not stated) | 14.0
CC(=O)N1CCN(c2ccc([N+](=O)[O-])c(NCc3cccnc3)c2)CC1 | 4.5
O=S(=O)(c1ccc2ccccc2c1)N1CCN(C(=S)Nc2ccccc2F)CC1 | 17.6
COc1ccccc1/C=C/C=N/NC(=O)CCC1C(=O)NN=C1C (configuration not stated) | 9.8
CC(C)[C@H](NS(=O)(=O)c1ccc2c(c1)OCCO2)C(=O)OCC(=O)Nc1cccc(Cl)c1Cl | 5.3
O=C(C1=C(O)C(=O)N(Cc2ccco2)C1c1ccccc1F)c1cccs1 (configuration not stated) | -5.2
O=C(c1ccccc1)C1CCN(CC(=O)N2CCN(c3ccccc3)CC2)CC1 | 20.9
CCCC(NC(=O)c1ccco1)c1nc2ccccc2[nH]1 (configuration not stated) | 12.7
O=C1CCC(NC(=O)c2ccccc2)C(=O)N1 (configuration not stated) | 26.6
OCCN(CCO)CC(O)CN(c1ccccc1)c1ccccc1 (configuration not stated) | 24.5
O=C(Nc1ccccc1)Nc1ccc(Oc2ncnc3cc(Cl)ccc23)nc1 | 30.3
COc1ccc(NC(=O)CSc2nnc(N)n2CC(=O)Nc2ccc(OC)cc2)cc1 | -2.4
CCCN(CCC)S(=O)(=O)c1ccc(C(=O)NNC(=O)c2cc(OC)c(OC)c(OC)c2)cc1 | 22.9

7 entries picked at random from those above:
SMILES | Calb biofilm kill
COc1ccc(N2CCN(c3cc(C)c4ccccc4n3)CC2)cc1 | 11.7
O=C1CCC(NC(=O)c2ccccc2)C(=O)N1 (configuration not stated) | 26.6
CCCN(CCC)S(=O)(=O)c1ccc(C(=O)NNC(=O)c2cc(OC)c(OC)c(OC)c2)cc1 | 22.9
COc1ccccc1-n1c(C)nc2cc(C(=O)NCc3ccc4c(c3)OCO4)ccc21 | 10.6
Cc1ccccc1C(=O)Nc1nnc(SC(C)C)s1 | 10.3
O=C(Nc1ccc(CN2CCCCC2)cc1)c1cc(Br)ccc1Cl | 18.4
O=C(Nc1ccccc1)Nc1ccc(Oc2ncnc3cc(Cl)ccc23)nc1 | 30.3

(listing goes on)
SMILES | Calb biofilm kill
CCOC(=O)CNC(=S)N(Cc1ccccc1)Cc1cccnc1 | 3.8
COc1ccc(NC(=O)c2ccccc2[N+](=O)[O-])cc1 | 4.0
CNC(=S)N/N=C(\C)c1cccc(C(F)(F)F)c1 | 13.5
Cc1ccc(NC(=O)c2cc(C)n(-c3ccccc3)c2C)cc1 | 14.6
CCc1nnc(NC(=O)CN2CCN(c3cccc(OC)c3)CC2)s1 | 15.0
C=C(C)CSc1nc2ccccc2c(=O)n1-c1c(C)n(C)n(-c2ccccc2)c1=O | 8.8
CCn1nc(C)cc1C(=O)Sc1cccc(Br)c1 | 26.8
Cc1cc(N(C)/N=C/c2ccccc2O)nc(-c2ccccc2O)n1 | 2.7
O=C(Cc1cccs1)N(CC1CCCO1)C1(C(=O)NC2CCCC2)CCCCC1 (configuration not stated) | 3.5
Cn1ccnc1SCC(=O)c1ccc([N+](=O)[O-])cc1 | 4.5
COc1ccc(NC(=O)CSc2ccc3ccccc3c2)cc1S(=O)(=O)N1CCCCC1 | 10.8
CN(C)CCOCCOc1ccc(Cl)cc1C(C)(C)C | 27.9
COc1ccc(CCNC(=O)CN(C)S(=O)(=O)c2ccc(Br)s2)cc1OC | 14.5
CCN(CC)C1=N/C(=C\c2ccc(OC)cc2)C(=O)N1c1ccccc1 | 12.0
CCn1c(CNc2ccc(F)cc2)nnc1SCC#N | 3.4
CCSc1nnc(NC(=O)COc2ccc(Cl)cc2)s1 | 19.2
Cc1cc(C)cc(OCC(=O)N/N=C\c2cn(C)nc2C)c1 | -3.0
COc1cccc(CN2CCN(c3ccc(F)cc3)C2=O)c1 | 12.5
O=C(O)CCSc1ncnc2sc(-c3ccccc3)cc12 | 13.7
CCCN1CNC(=S)N(CC2CCCO2)C1 (configuration not stated) | 6.3
O=C(Nc1ccc(N2CCCCC2)cc1)c1cc([N+](=O)[O-])cc([N+](=O)[O-])c1 | 22.8
Cc1nc(NS(=O)(=O)c2ccccc2)sc1NC(=O)Nc1ccc(Cl)cc1 | 18.8
Cn1c(Oc2ccc(F)cc2F)c(C=O)c2ccccc21 | 9.7
CCOC(=O)C1(Cc2ccc(OC)cc2)CCN(C(=O)c2ccc3[nH]ccc3c2)CC1 | 57.9
O=[N+]([O-])c1ccc(-c2cn3c(n2)CCC3)cc1 | 13.0
The results go on.
SMILES | Calb biofilm kill
O=C1CN(C(=O)CSc2nc(-c3ccc(Cl)cc3)cs2)c2ccccc2N1 | 16.8
CCOC(=O)C1(CCc2ccccc2)CCN(C(=O)CCc2cnccn2)CC1 | 3.3
O=C(NCc1ccccc1)C1=C[C@H](c2ccc(C(F)(F)F)cc2)C[C@H](OCc2ccc(CO)cc2)O1 | 11.3
O=C(Nc1ccc([N+](=O)[O-])cc1)c1ccc(Cn2cc([N+](=O)[O-])cn2)cc1 | 5.2
Cc1ccc(NC(=O)Cc2c(Cl)cccc2Cl)cc1S(=O)(=O)N(C)C | 12.7
O=C(/C=C/c1cccs1)c1ccc(NC(=O)c2ccccc2F)cc1 | 9.2
CCOC(=O)C1CCCNC1=O (configuration not stated) | 1.9

Bioassay records from PubChem BioAssay.

A portion of the library; rates above refer to the full screens.
